Screens as filed in PubChem.
RE007 growth inh: less growth of the S. pombe RE007 Vpr strain | S. pombe RE007 Vpr strain, BacTiter-Glo ATP luminescence, 24 h; control for the full effect not named in the record | Potency, µM (series often up to 92.2 µM), for the others: at the highest dose activity change, negative = less growth | actives 0.21% (n = 360,000) | AID 651644; active = well fitted falling curve with a large enough effect; inconclusive = small, poorly fitted or top-dose-only effect; inactive = no such curve, though single readings can be large or run the other way;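 also: % is scaled to controls: 0 for no effect and ±100 for the full control effect; nearly all actives have a fitted effect of over 50% in size; the assay follows cell death caused by Vpr and the record does not say whether a fall means rescue or toxicity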
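Fission yeast RE007 carrying one integrated HIV-1 vpr copy, seeded at OD 0.01 in PMG+AL medium with 23 nL pinned compound. Grown 24 h at 30 degrees; viability read by BacTiter-Glo luminescence after 5 min.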
Cruzain inh Det: inhibitors of Trypanosoma cruzi cruzain with detergent; Potency, µM, inactives show max response, negative = inhibition, actives largely listed as inhibitors; P25779; actives 0.43% (n = 200,000); purified cruzain, Z-FR-AMC fluorescence, 0.01% Triton;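 also: plate controls were neutral wells for no effect and buffer without enzyme for full effect; nearly all actives have a fitted effect of over 40% in size; top concentration of the series not given in the record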
Target sequence (P25779 123-467 limits assumed): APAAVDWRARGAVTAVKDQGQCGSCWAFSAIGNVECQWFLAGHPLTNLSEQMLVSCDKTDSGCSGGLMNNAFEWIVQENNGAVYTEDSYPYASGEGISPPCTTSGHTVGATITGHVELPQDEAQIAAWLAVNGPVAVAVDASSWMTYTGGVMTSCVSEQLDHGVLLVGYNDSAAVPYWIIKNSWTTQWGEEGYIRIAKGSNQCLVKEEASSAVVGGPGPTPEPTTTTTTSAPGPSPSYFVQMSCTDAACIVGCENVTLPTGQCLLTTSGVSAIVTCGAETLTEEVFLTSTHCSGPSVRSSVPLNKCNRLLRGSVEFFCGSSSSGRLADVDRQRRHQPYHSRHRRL
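Detergent-containing arm of a paired screen for aggregation-based inhibition: 0.01% Triton X-100 present. Cruzain at 1.5 nM cleaved 2 uM Z-FR-AMC at pH 5.5 with 5 mM DTT; AMC fluorescence gain over 60 s measured activity.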
LASV entry inh: inhibitors of Lassa virus binding or cell entry. Lassa virus pseudotype entry inhibition, cell reporter; control for the full effect not named in the record. Potency, µM (titrated, usually from 37.9 µM), inactives show top-dose activity change, negative = inhibition, most hits filed as inhibitors. actives 1.2% (n = 300,000). AID 540256; active means well fitted inhibition curve with a large enough effect; inconclusive means small, poorly fitted or top-dose-only effect, or effect the other way; inactive means flat fitted curve, though single readings scatter; tested in HEK293 cells; also: % is scaled to controls: 0 for no effect and ±100 for the full control effect; nearly all actives have a fitted effect of over 50% in size; luciferase read-out
NS1 inh: influenza NS1 inhibition. Potency, µM (highest dose often 46.1 µM), for inactives: at the top dose activity, positive = more growth. actives 0.4% (n = 270,000). S. cerevisiae slowed by influenza A NS1, growth recovery by OD600; active means well fitted rising curve with a large enough effect; inconclusive means small, poorly fitted or top-dose-only effect; inactive means no such curve, though single readings can be large or run the other way; also: nearly all actives have a fitted effect of over 50% in size
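In this qHTS, NS1 from influenza A is expressed in budding yeast, where it slows growth. Cells are switched from glucose to 2% galactose medium (pH 6.0, -URA), treated with compound, and growth recovery is read at OD600.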
2A StopGo: lowers the luciferase signal of an FMDV 2A StopGo reporter. human cells with a luciferase reporter of 2A StopGo recoding; control for the full effect not named in the record. Potency, µM (highest dose often 57.9 µM), without a hit: at the top dose signal change, negative = less light. actives 1.2% (n = 410,000); active = well fitted falling curve with a large enough effect; inconclusive = small, poorly fitted or top-dose-only effect; inactive = no such curve, though single readings can be large or run the other way; tested in HEK293T cells; also: % is scaled to controls: 0 for no effect and ±100 for the full control effect; nearly all actives have a fitted effect of over 45% in size; luciferase light after 4 h
SARS PLP yeast: inhibitors of SARS-CoV papain-like protease in yeast; Potency, µM (titrated, usually from 32.9 µM), for inactives: top-dose activity, positive = growth rescue; AID 485353; actives 0.19% (n = 330,000); S. cerevisiae expressing SARS-CoV PLpro, growth rescue; control for the full effect not named in the record; active means well fitted rising curve with a large enough effect; inconclusive means small, poorly fitted or top-dose-only effect; inactive means no such curve, though single readings can be large or run the other way; also: 0% is about no effect; nearly all actives have a fitted effect of over 55% in size; growth read by luminescence after 48 h
Marburg entry inh: inhibitors of Marburg virus binding or cell entry; Marburg virus pseudotyped entry inhibition, cell reporter; control for the full effect not named in the record; about a third of the inactives were read at about 46 µM; Potency, µM (titrated, usually from 37.8 µM), for the others: at the highest dose activity change, negative = inhibition, usual class: inhibitors; actives 1.8% (n = 300,000); active = well fitted inhibition curve with a large enough effect; inconclusive = small, poorly fitted or top-dose-only effect, or effect the other way; inactive = flat fitted curve, though single readings scatter; tested in HEK293 cells; about a fifth of its hits are not listed in these tables; also: % is scaled to controls: 0 for no effect and ±100 for the full control effect; luciferase read-out
Cruzain noTriton: cruzain (T. cruzi) inhibition without detergent; purified cruzain, Z-FR-AMC fluorescence, no detergent; P25779; actives 2.3% (n = 200,000); AID 1476; Potency, µM, for the others: max response, negative = inhibition, hits mostly inhibitors;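 also: plate controls were enzyme without inhibitor for no effect and buffer without enzyme for full effect; nearly all actives have a fitted effect of over 40% in size; top concentration of the series not given in the record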
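Purified cruzain at 1.5 nM, pre-incubated 15 min with compound at room temperature in 100 mM sodium acetate pH 5.5, 5 mM DTT, 0.00005% Triton X-100. Reaction started with 2 uM Z-FR-AMC; AMC fluorescence increase over 60 s gives rate.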
* hit, by the source's call; ? = inconclusive; · = not tested or not shown; & = joins results of further samples; ! = a repeat was not active; [ ] = another dose, or the depositor's remark. Unless noted, calls follow the shape of the dose curve; as a rule, active = well fitted curve in the direction sought with a large enough effect; inconclusive = small, poorly fitted or top-dose-only effect, or another doubt; inactive = no such curve, though single readings can be large; an effect the other way counts as inactive or inconclusive. Potency is read from the fitted curve at half-maximal effect.

SMILES	RE007 growth inh	Cruzain inh Det	LASV entry inh	NS1 inh	2A StopGo	SARS PLP yeast	Marburg entry inh	Cruzain noTriton
CC(C)(C)c1ccc(C(=O)/C=C2\NC(=O)CS2)cc1	6%	0.1%	?	-92%	-57%	-12%	-20%[46.1 µM]	-3%
S=C(NC1CCCC1)N1CCN(c2ccccn2)CC1	·	6.7%	6%	-11%	0%	-7%	23%	5%
Cc1ccc(COc2ccc3c(c2)OCO3)cc1	-9%	·	?	-10%	36%[activator]	3%	-32%[46.1 µM]	·
C=CCN1CC[C@]23c4c5ccc(O)c4O[C@H]2/C(=N/NC(=O)c2ccccc2)CC[C@@]3(O)[C@H]1C5	-2%[18.4 µM]	3.8%&-2.4%	?	?	?	·	0.089µM*!	-4%&-5%
COc1ccc(Cn2c(CCC(=O)NCc3cccc(Cl)c3)nc3cccnc32)cc1	·	-5.9%	22%[46.1 µM]	·	-1%	·	6%[46.1 µM]	13%
CC1CCc2c(nc3nc[nH]n3c2=O)C1 (stereo not given)	7%	-1.3%	6%	6%	-25%	7%	2%	-6%
COC(=O)c1cc(OC)c(OC)cc1NC(=O)c1cccc(OC)c1OC	-8%	·	-19%[46.1 µM]	-7%	-2%	0%	-13%[46.1 µM]	·
COc1ccccc1CN1CC(C(=O)N(C)CCCn2nc(C)cc2C)CCC1=O (stereo not given)	-2%	·	·	-6%	-11%	4%	·	·
CCOC(=O)CCCCC(=O)c1[nH]c(=O)[nH]c1CSc1nnc2c3ccccc3n(C(C)C)c2n1	24%	-15%	3%	15%	?	?	?	8%
CCOC(=O)N1CCC(=NNc2ccc(S(N)(=O)=O)cc2[N+](=O)[O-])CC1	-8%	·	1%[46.1 µM]	·	-16%	-1%	3%[46.1 µM]	·
CC(=O)C1=C(C)OC(N)=C(C#N)C1c1ccco1 (stereo not given)	-15%	-1.1%	7%	7%	-4%	-1%	-5%	-1%
CS(=O)(=O)c1ccc(-c2nnc(NC(=O)c3ccco3)o2)cc1	3%	·	1%	·	3%	·	8%[46.1 µM]	·
CC1(C)N2CC3([N+](=O)[O-])CN1CC([N+](=O)[O-])(C2)C3	1%	·	·	4%	-11%	0%	·	·
COc1cc(CNCCCN2CCOCC2)cc(Cl)c1OCC(=O)NC(C)(C)C	-4%	·	11%[46.1 µM]	-3%	0%	-1%	?	·
CCc1ccc(NC2=CC(=O)C(=O)c3ccccc32)cc1	-6%	·	?	·	0%	-2%	?	·
CC(=O)Nc1ccccc1-c1nnc(SCc2ccccc2Cl)[nH]c1=O	-12%[3.69 µM]	-2.3%	-7%	2%	-17%	7%	0%	0%
Cc1c(OCc2ccccc2)c(=O)ccn1Cc1ccc(F)cc1	2%	·	-17%	·	?	-4%	?	·
O=C(CC1C(=O)NC2CCCCC2N1C(=O)c1ccc([N+](=O)[O-])cc1)Nc1ccccc1 (stereo not given)	8%	·	·	0%	-22%	1%	·	·
CCc1cc(=O)n2[nH]c(-c3ccccc3)c(-c3ccccc3)c2n1	-10%	·	?	3%	-25%	0%	?	·
CC(=O)N[C@@H]1c2c(ccc3ccccc23)OC[C@@H]1COC(C)=O	-9%	·	-5%[46.1 µM]	·	-6%	1%	12%[46.1 µM]	·

Sorted by number of heavy atoms (lowest first): 10 of the compounds above
SMILES	RE007 growth inh	Cruzain inh Det	LASV entry inh	NS1 inh	2A StopGo	SARS PLP yeast	Marburg entry inh	Cruzain noTriton
CC1CCc2c(nc3nc[nH]n3c2=O)C1 (stereo not given)	7%	-1.3%	6%	6%	-25%	7%	2%	-6%
CC(=O)C1=C(C)OC(N)=C(C#N)C1c1ccco1 (stereo not given)	-15%	-1.1%	7%	7%	-4%	-1%	-5%	-1%
CC(C)(C)c1ccc(C(=O)/C=C2\NC(=O)CS2)cc1	6%	0.1%	?	-92%	-57%	-12%	-20%[46.1 µM]	-3%
S=C(NC1CCCC1)N1CCN(c2ccccn2)CC1	·	6.7%	6%	-11%	0%	-7%	23%	5%
CCc1ccc(NC2=CC(=O)C(=O)c3ccccc32)cc1	-6%	·	?	·	0%	-2%	?	·
CC(=O)N[C@@H]1c2c(ccc3ccccc23)OC[C@@H]1COC(C)=O	-9%	·	-5%[46.1 µM]	·	-6%	1%	12%[46.1 µM]	·
CCc1cc(=O)n2[nH]c(-c3ccccc3)c(-c3ccccc3)c2n1	-10%	·	?	3%	-25%	0%	?	·
O=C(CC1C(=O)NC2CCCCC2N1C(=O)c1ccc([N+](=O)[O-])cc1)Nc1ccccc1 (stereo not given)	8%	·	·	0%	-22%	1%	·	·
C=CCN1CC[C@]23c4c5ccc(O)c4O[C@H]2/C(=N/NC(=O)c2ccccc2)CC[C@@]3(O)[C@H]1C5	-2%[18.4 µM]	3.8%&-2.4%	?	?	?	·	0.089µM*!	-4%&-5%
CCOC(=O)CCCCC(=O)c1[nH]c(=O)[nH]c1CSc1nnc2c3ccccc3n(C(C)C)c2n1	24%	-15%	3%	15%	?	?	?	8%

Next section:
SMILES	RE007 growth inh	Cruzain inh Det	LASV entry inh	NS1 inh	2A StopGo	SARS PLP yeast	Marburg entry inh	Cruzain noTriton
COc1ccc(C(C)NC(=S)NC2CCCC2)cc1OC (stereo not given)	-27%	-2.5%	-15%	4%	-9%	3%	-4%	1%
CN(C(=O)CN1C(=O)NC2(CCc3ccccc32)C1=O)C1CCS(=O)(=O)C1 (stereo not given)	-6%	·	?	·	0%	1%	8%	·
O=C(c1ccc(Br)cc1)c1cc([N+](=O)[O-])ccc1N1CCOCC1	2%	·	·	-2%	0%	0%	·	·
CCNC(=O)C1CCCc2c1[nH]c1ccc(Cl)cc21 (stereo not given)	12%	·	-22%	·	2%	-9%	-8%[46.1 µM]	·
O=C(c1ccc2[nH]c(=O)c(=O)[nH]c2c1)N1CCN(Cc2ccccc2)CC1	2%	·	·	-8%	-19%	-1%	·	·
Cc1ccc(C)c(S(=O)(=O)N2CCN(C(C(=O)Nc3ccc(F)cc3)c3ccccc3)CC2)c1 (stereo not given)	1%	-2.8%	-8%	13%	-7%	-9%	?	25µM*
COc1ccc(NC2=C(C(C)=O)C(c3ccc(OC)c(OC)c3)C(C(C)=O)C(C)(O)C2)cc1 (stereo not given)	-1%	-6.7%	-2%	12%	9%	0%	0%	29%
Cc1ccc2nc(Cl)c3nnnn3c2c1	25µM*	·	1%[46.1 µM]	·	13µM*	-25%	2%[46.1 µM]	·
O=C(COc1cccnc1[N+](=O)[O-])N1CCC(Cc2ccccc2)CC1	6%	·	-4%[46.1 µM]	·	10%	10%	?	·
Cn1c(=O)c2[nH]c(CN3CCN(Cc4ccccc4)CC3)nc2n(C)c1=O	-10%	4.7%	-17%	-5%	-17%	4%	-1%	0%
CCOc1cc(CNC(=O)C2CCN(c3nc4ccccc4[nH]3)CC2)cc(OCC)c1OCC	·	0.7%	25%[46.1 µM]	·	-4%	·	·	1%
COc1ccc(Nc2nc3ccccc3nc2NS(=O)(=O)c2ccc(NC(C)=O)cc2)cc1	5%	·	-12%	-2%	18%	-1%	-12%[46.1 µM]	·
Cc1nc2cnccc2n1C	-6%	·	26%[46.1 µM]	8%	-14%	8%	-1%[46.1 µM]	·
CCOC(=O)Nc1oc2ccccc2c(=O)c1CN1CCOCC1	-20%	-2.5%	-3%	6%	4%	0%	-22%	?
O=c1[nH]c(C2CCCN(S(=O)(=O)c3ccccc3F)C2)nc2c1nnn2Cc1ccccc1Cl (stereo not given)	8%	·	-16%[46.1 µM]	-1%	-5%	-2%	?	·
O=c1[nH]c(SCc2cccc(Cl)c2)nc2c1CCCC2	-1%	-1.8%	-6%	-9%	-22%	-5%	-6%	7%
CN(C)c1ccc(N=Nc2nc3ccccc3n2C)cc1	11µM*	·	·	-34%	4µM*	-14%	·	·
Cc1ccc(O)c(N=NC2=C(O)CC(C)(C)CC2=O)c1	-5%	-11%	?	-22%	22%	18µM*	10µM*	-8%
COc1ccc(C(=O)NCC(=O)N=Nc2c(O)n(Cc3ccccc3)c3ccccc23)cc1OC	3%	-6.1%	9%	26%	-15%	2%	-13%[46.1 µM]	13%
Cc1ccc(N/C(C(Cl)=C(Cl)Cl)=C(/Cl)[N+](=O)[O-])c(C)c1	0%	-9.2%	10%	-86%	-3%	-71%	-31%	-21%
Cc1sc(NC(=O)C2C3CCC(O3)C2C(=O)O)nc1-c1ccc(CC(C)C)cc1 (stereo not given)	?	-11%	2%	-40%	16%	-62%	?	13%
CN1C(=S)SC(C)(C)C1/[N+]([O-])=C/c1cccnc1 (stereo not given)	26%	-2.3%	24%	-4%	-5%	1%	5%[46.1 µM]	3%
CC(C)C(=O)Nc1cccc(-c2cn3ccccc3n2)c1	-6%	1.2%	1%	3%	-9%	4%	26%	9%
COc1ccc(Nc2c3c(nc4nncn24)CCC3)cc1Cl	·	-2.6%	?	·	-27%	·	-28%[46.1 µM]	5%
Cc1cc(C)cc(-n2ccn3cnnc3c2=O)c1	·	-2.9%	-7%[46.1 µM]	·	1%	·	2%[46.1 µM]	0%
Cc1cc(NC(=O)c2ccccc2NS(=O)(=O)c2c(C)c(C)cc(C)c2C)no1	7%	5.8%	-21%	-2%	·	2%	-14%	-22%
Cc1c(C(=O)N(C)C(C)c2ccccn2)oc2c(F)cccc12 (stereo not given)	?	·	27%	-18%	16%	1%	?	·
CCOC(=O)N1CCN(C(=O)Cc2cccs2)CC1	2%	0.5%	4%	0%	8%	-6%	1%	0%
CC(=O)c1ccc(CCCc2ccc(C(C)=O)cc2)cc1	5%	·	-7%[46.1 µM]	·	0%	·	?	·
Cc1cc(-c2ccc(C(C)C)c(S(=O)(=O)N3CC(=O)Nc4ccccc43)c2)on1	3%	·	?	17%	-20%	3%	?	·
Brc1ccccc1CN1CCC(N2CCCCC2)CC1	-26%	5.8%	?	?	-9%	9%	-23%	12%

Outcome played no part in choosing rows (roughly 4.8% active in at least one column).
